PINK1 modulator: A Quantitative High throughput Screen to Identify Chemical Modulators of PINK1 Expression | PINK1 immunofluorescence, high-content cytometry, 24 h | 0.2% of 410,000 active | Potency, µM (doses to about 76.6 µM), for inactives: at the top dose activation (PINK1 increase), actives largely listed as activators; active = well fitted activation curve with a large enough effect; inconclusive = small, poorly fitted or top-dose-only effect; inactive = flat fitted curve, though single readings scatter; cell line not stated here;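 note: potency is the fitted concentration of half-maximal effect; % of control where 0% means no effect; nearly all actives have a fitted effect of over 65% in size; a mitochondrial uncoupler was the plate control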
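Decision-based qHTS: stable cells, 24 h exposure to five compound concentrations, CCCP as control. Fixed cells stained for PINK1 plus nuclear, mitochondrial and cell markers, cytometer read.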
TRPML1 inh: qHTS for Inhibitors of the Human Mucolipin Transient Receptor Potential 1 (TRPML1) | Mucolipin-1 (Homo sapiens), Q9GZU1 | TRPML1-inducible cells, Ca2+ dye fluorescence, FDSS; hits give low values; inhibition of EC80 agonist-evoked calcium signal | activity change, negative = inhibition, % (no concentration beside the values) | 0.02% of 390,000 active | AID 624415, 2012; in the data active means activity change below about -50%; inconclusive means about -30% to -50%; inactive means above about -30%;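 note: stimulus is agonist 54-4 at its EC80 concentration; % is set by controls: 0 for no effect and ±100 for the full control effect; compound concentration not given in the record; the text of the record puts the active cut at -80%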
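Calcium fluorescence in TRPML1-DL cells induced overnight with Tet: a 110 s read after compound pin addition, then a 110 s antagonist read after challenge with 54-4 at 4 uM final (EC80).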
Six1-Eya2 inh: qHTS Assay for Inhibitors of the Six1/Eya2 Interaction; AlphaScreen GST-Six1/His-Eya2 binding, biochemical; hits give low values; control for the full effect not named in the record; AID 651725, 2012; 0.56% of 360,000 active; activity change, % (concentration not given with the values); in the data active = activity change below about -65%; inconclusive = about -30% to -65%; inactive = above about -30%; note: % is set by controls: 0 for no effect and ±100 for the full control effect
Target sequence (O00167 whole entry, looked up): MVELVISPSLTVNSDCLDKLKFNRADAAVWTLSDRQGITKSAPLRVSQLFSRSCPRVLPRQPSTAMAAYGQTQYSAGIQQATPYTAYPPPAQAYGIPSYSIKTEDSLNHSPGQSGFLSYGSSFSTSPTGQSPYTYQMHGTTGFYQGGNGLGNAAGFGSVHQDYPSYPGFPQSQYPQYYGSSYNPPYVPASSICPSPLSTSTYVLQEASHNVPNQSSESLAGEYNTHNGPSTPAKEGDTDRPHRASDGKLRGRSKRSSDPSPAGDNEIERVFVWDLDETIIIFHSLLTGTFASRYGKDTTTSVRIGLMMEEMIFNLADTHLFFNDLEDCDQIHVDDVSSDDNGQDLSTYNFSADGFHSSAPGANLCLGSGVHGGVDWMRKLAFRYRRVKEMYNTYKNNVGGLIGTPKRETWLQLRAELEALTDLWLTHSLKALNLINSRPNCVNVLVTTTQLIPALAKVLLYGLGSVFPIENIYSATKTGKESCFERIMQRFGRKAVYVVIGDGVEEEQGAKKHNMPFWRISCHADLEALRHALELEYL
Target sequence (Q15475 whole entry, looked up): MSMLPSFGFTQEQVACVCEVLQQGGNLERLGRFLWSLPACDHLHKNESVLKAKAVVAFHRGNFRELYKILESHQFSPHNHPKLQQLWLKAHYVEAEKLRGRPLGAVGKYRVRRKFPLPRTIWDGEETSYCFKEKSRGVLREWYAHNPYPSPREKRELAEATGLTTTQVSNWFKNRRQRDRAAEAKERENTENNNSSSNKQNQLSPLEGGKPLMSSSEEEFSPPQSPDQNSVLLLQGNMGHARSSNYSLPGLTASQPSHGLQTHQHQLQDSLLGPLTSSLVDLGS
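GST-Six1 + His-Eya2 (5X stock: 250/500 nM); Tris pH 8.0, 300 mM NaCl, 0.05% BSA, 0.02% Tween 20; GSH donor/Ni acceptor beads; 1 h 37 °C dark; AlphaScreen readout.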
D2 PAM: Beta-Arrestin HTS for Positive Allosteric Modulators of the Human D2 Dopamine Receptor: Potentiators. D(2) dopamine receptor (Homo sapiens), P14416. 0.23% of 360,000 active. potentiation, % (test concentration not listed). DiscoveRx D2 beta-arrestin cells, luminescence, 90 min; 100% = 57 uM dopamine signal; active = potentiation of 50% or more; inconclusive = 30% to 50%; inactive = 30% or less;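 note: compound concentration not given in the record; tested on top of an EC20 dose of dopamine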
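PathHunter D2 cells, attached overnight at 37 deg C, received compound in DMSO plus dopamine at EC20 (50 nM final) for 90 min at 37 deg C. Beta-arrestin recruitment was read as luminescence after 1 h with detection reagent at ambient temperature.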
D2 ag: Beta-Arrestin HTS for Positive Allosteric Modulators of the Human D2 Dopamine Receptor: Agonists; AID 624465, 2012; activation, % (no concentration beside the values); 0.084% of 360,000 active; DiscoveRx PathHunter D2 beta-arrestin, luminescence, 90 min; 100% = 57 uM dopamine signal; in the data active = activation above about 40%; inconclusive = about 15% to 40%; inactive = below about 15%; note: compound concentration not given in the record; the text of the record calls up to 30% inactive
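DiscoveRx PathHunter D2 beta-arrestin cells (2,100/well) attached overnight, then compound-stimulated 90 min at 37 C in HBSS/10 mM HEPES/0.1% Tween-20 buffer; beta-galactosidase complementation read by luminescence after 1 h at ambient temperature. Dopamine 57 uM final (EC100) as control.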
TRPML1 ag: qHTS for Agonists of the Human Mucolipin Transient Receptor Potential 1 (TRPML1); AID 624414, 2012; activation, % (concentration not given with the values); 0.12% of 410,000 active; Mucolipin-1 (Homo sapiens), Q9GZU1; TRPML1-expressing cells, Ca2+ dye fluorescence, FDSS; host cell line not named in the record; reference of the full effect not given here; in the data active = activation above about 50%; inconclusive = about 30% to 50%; inactive = below about 30%; note: 0% is about no effect; the text of the record puts the active cut at 80%
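Cells: TRPML1-DL, 1X Tet inducer, ~16 h at 37 degrees C/5% CO2. Dye: ABD Ca8 no-wash + quencher, 45-90 min RT. Read: 10 s baseline, compound add, 110 s agonist phase; 54-4 EC80 (4uM final), 110 s antagonist phase.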
Numbers without * were called inactive; ? = inconclusive; . = not tested or not shown; & = joins results of further samples; [ ] = remark or other dose.

SMILES	PINK1 modulator	TRPML1 inh	Six1-Eya2 inh	D2 PAM	D2 ag	TRPML1 ag
O=C(CSc1nnc(-c2ccc(Br)cc2)n1C1CCCCC1)N1CCCC1	0.1%	2	5	-6	-2.4	-0.9
CN(CCc1ccccc1)c1cc2c(c3c1ccn3C)C1CCC2O1 (configuration not stated)	2.2%	.	?	-8	6.4	-0.6
CCOc1ncccc1C(=O)NNC(=O)c1cccc(S(=O)(=O)Nc2ccccc2OC)c1	-0.9%	8	-16	-7	-3.8	-0.8
COc1ccc(-c2nnc3n2N=C(C)CS3)cc1OC	-2.9%	-10	5	-3	0.0	-0.8
Cn1c(N)c(C(=O)CSc2nnc(N)s2)c(=O)n(C)c1=O	1.7%	-26	-18	-13	-2.0	0.4
CCOc1ccccc1C1C2=C(COC2=O)Nc2cc3c(cc21)OCO3 (configuration not stated)	-1.6%	6	-11	-5	-1.5	19
Cc1cccc(NC(=O)Cn2cnc3c(cnn3-c3ccc(F)cc3)c2=O)c1C	1.6%	3	2	-4	-0.9	-0.4
COc1c(C(=O)Nc2nnc(C3CC3)s2)csc1Cl	0.4%	-4	0	0	-3.5	1.2
Cc1ccc(CN(C)C2CCN(C)CC2)cc1	0.6%	6	3	-4	-3.5	-0.7
CC(NC(=O)CC1CCCCC1)c1ccccc1 (configuration not stated)	2.3%	2	12	-10	-6.6	-0.4
COc1cc(OC)nc(Oc2ccc(N)c(C)c2)n1	-2.2%	-15	3	-5	-1.4	-0.4
CCCCN(Cc1ccccc1)S(=O)(=O)c1cc(Br)cc2c1N(C(C)=O)C(C)C2 (configuration not stated)	-0.1%[38.3 µM]	-2	-4	3	0.3	2.0
Cc1csc2nc(-c3cccc(NC(=O)c4ccccc4F)c3)cn12	-3.6%	-28	.	.	.	0.2
Cn1c(=O)n(Cc2ccc(F)cc2)c(=O)c2c1nc1n2CCCN1Cc1ccccc1	2.4%	34	-10	-8	1.2	0.3
NS(=O)(=O)c1ccc(CCNC(=O)CSCc2ccccc2)cc1	-1.7%	2	8	-9	-4.2	0.3

An excerpt of these results, field by field:
Compound: Cn1c(N)c(C(=O)CSc2nnc(N)s2)c(=O)n(C)c1=O
  PINK1 modulator: 1.7% | TRPML1 inh: -26 | Six1-Eya2 inh: -18 | D2 PAM: -13 | D2 ag: -2.0 | TRPML1 ag: 0.4
Compound: CCOc1ccccc1C1C2=C(COC2=O)Nc2cc3c(cc21)OCO3 (configuration not stated)
  PINK1 modulator: -1.6% | TRPML1 inh: 6 | Six1-Eya2 inh: -11 | D2 PAM: -5 | D2 ag: -1.5 | TRPML1 ag: 19

The list continues:
SMILES	PINK1 modulator	TRPML1 inh	Six1-Eya2 inh	D2 PAM	D2 ag	TRPML1 ag
CC1=C(C(=O)OC2CCCCC2)C(c2ccccc2F)NC(=O)N1 (configuration not stated)	-2.1%	25	-20	-2	-4.0	-0.2
Cc1ccc(C(C)NC(=O)c2c(C)noc2C)cc1C (configuration not stated)	5.2%[38.3 µM]	-5	3	5	-0.9	0.2
COc1ccc(C(=O)NCC(=O)OCC(=O)N(C)c2ccccc2)cc1	-0.8%	-1	0	-5	-3.7	1.1
Cc1onc(-c2ccccc2)c1C1=N/C(=C\c2ccccc2F)C(=O)O1	0.6%	-21	5	-5	-2.3	1.5
O=C1c2cccc3cccc(c23)C(=O)N1CCCn1ccnc1	0.9%	0	-4	-7	-4.1	2.3
COc1ccccc1NC(=O)C(C)OC(=O)CSCC(=O)Nc1ccc(C)cc1C (configuration not stated)	-0.5%	-3	1	4	-0.5	-0.3
NC(=O)CC[C@@H]1NC(=O)[C@H](CO)NC(=O)c2cc([N+](=O)[O-])cc(I)c2NCCC[C@@H](C(N)=O)NC(=O)[C@H](Cc2ccc(O)cc2)NC1=O	0.1%	0	-5	-3	-0.8	-0.3
Cc1cc(NC(=O)CSc2nc(CC(C)(C)C)nc3c2c(=O)n(C)c(=O)n3C)no1	0.3%	9	6	-4	-0.2	0.4
O=C(Cc1cccc(NC(=O)C2CCN(C(=O)C3CCCC3)CC2)c1)Nc1cccc(C(=O)N2CCCC2)c1	1.4%	5	4	13	3.5	1.1
O=C(Nc1nnc(S(=O)(=O)Nc2ccccc2)s1)C1CCCCC1	0.5%&0.1%	-18&16	2	-5	-3.8	-0.3&1.0
CCCCCn1c(=O)[nH]c2cc(C(=O)N3CCN(c4ccc(F)cc4)CC3)ccc2c1=O	8.0%	-2	-1	3	11	2.0
C/C(CC(C)C)=N\Oc1nc(C)cc(C)n1	1.2%	13	0	0	-1.7	1.8
CCn1c(SCC(=O)Nc2ccc3[nH]c(=O)[nH]c3c2)nc2ccccc21	0.2%	-16	-6	-3	0.0	0.7
O=C(c1ccc2nc(Cc3ccccc3F)oc2c1)N1CCCC1	0.4%	-25	1	13	2.5	-0.4
O=C(O)c1ccc2c(c1)S(=O)(=O)c1cc(N3CCN(c4ncccn4)CC3)ccc1C2=O	-0.8%	0	2	-1	-3.1	2.7
COc1cccc(-c2csc(N3CCN(C(=S)Nc4ccccc4Cl)CC3)n2)c1	.	-4	-22	-2	1.2	-0.3
C#CCNC(=O)C1=C[C@@H](c2ccc3c(c2)OCO3)[C@H](CCCO)[C@@H](OCC)O1	-1.5%	16	0	-3	-0.7	-0.6
CC1Nc2ncnc(N3CCN(c4ccccc4)CC3)c2N(Cc2ccccc2)C1=O (configuration not stated)	4.2%	7	-2	-23	-7.7	-0.6
CCOc1ccc(N(CC(=O)NCCc2ccccc2)C(=O)c2csnn2)cc1	0.2%	4	4	-5	-0.1	0.0
Cc1ccc(NS(=O)(=O)c2c(C)[nH]c(C)c2C(=O)N2CCCC2)cc1Cl	1.0%	0	-7	5	4.2	-0.2
O=C(NCc1ccccc1)C(c1cccs1)N(Cc1cccs1)C(=O)c1cnccn1 (configuration not stated)	1.0%	2	3	-1	1.7	0.2
Nc1ccc2c3c(cccc13)CC2	7.3%	-4	0	-7	2.1	7.9
CCOC(=O)c1c(S(=O)(=O)NCC(=O)Nc2ccc(OC)cc2)c(C)n(C)c1C	2.9%	-10	-9	-13	0.0	0.1
FC(F)(F)c1cccc(-c2cncc(N3CCN(CCN4CCCC4)CC3)n2)c1	4.4%	.	3	-3	-3.0	-0.1
O=C(Nc1ccc2c(c1)OCCO2)c1cc2sccc2n1Cc1ccccc1	0.3%	-2	-24	-15	-4.3	-0.7
CCC1=[N+]([O-])C(C)(/C(C)=N\O)N(O)C1(C)C (configuration not stated)	-0.9%	8	22	15	7.4	0.0
CN1CCc2c(n(CC(O)CN(CCO)CCO)c3ccccc23)C1=O (configuration not stated)	0.8%	38	2	-8	-5.5	-0.1
CC(C)c1cccc(C(C)C)c1NC(=O)COc1nncc2ccccc12	2.3%	5	-1	0	-2.7	0.7
Cc1ccccc1NS(=O)(=O)c1csc(C(N)=O)c1	0.3%	.	10	-6	-7.6	.
CC[C@@]1(C(=O)OC)N[C@H](CN(C)C(=O)COC)[C@@H]2C(=O)N(Cc3ccccc3)C(=O)[C@@H]21	-2.0%	-4	7	-5	-2.4	1.0

15 structures out of the list, arranged by formula weight, ascending:
SMILES	PINK1 modulator	TRPML1 inh	Six1-Eya2 inh	D2 PAM	D2 ag	TRPML1 ag
Nc1ccc2c3c(cccc13)CC2	7.3%	-4	0	-7	2.1	7.9
CCC1=[N+]([O-])C(C)(/C(C)=N\O)N(O)C1(C)C (configuration not stated)	-0.9%	8	22	15	7.4	0.0
Cc1ccccc1NS(=O)(=O)c1csc(C(N)=O)c1	0.3%	.	10	-6	-7.6	.
O=C(c1ccc2nc(Cc3ccccc3F)oc2c1)N1CCCC1	0.4%	-25	1	13	2.5	-0.4
CN1CCc2c(n(CC(O)CN(CCO)CCO)c3ccccc23)C1=O (configuration not stated)	0.8%	38	2	-8	-5.5	-0.1
CC(C)c1cccc(C(C)C)c1NC(=O)COc1nncc2ccccc12	2.3%	5	-1	0	-2.7	0.7
CCn1c(SCC(=O)Nc2ccc3[nH]c(=O)[nH]c3c2)nc2ccccc21	0.2%	-16	-6	-3	0.0	0.7
O=C(Nc1ccc2c(c1)OCCO2)c1cc2sccc2n1Cc1ccccc1	0.3%	-2	-24	-15	-4.3	-0.7
FC(F)(F)c1cccc(-c2cncc(N3CCN(CCN4CCCC4)CC3)n2)c1	4.4%	.	3	-3	-3.0	-0.1
CCOc1ccc(N(CC(=O)NCCc2ccccc2)C(=O)c2csnn2)cc1	0.2%	4	4	-5	-0.1	0.0
CC1Nc2ncnc(N3CCN(c4ccccc4)CC3)c2N(Cc2ccccc2)C1=O (configuration not stated)	4.2%	7	-2	-23	-7.7	-0.6
CCOC(=O)c1c(S(=O)(=O)NCC(=O)Nc2ccc(OC)cc2)c(C)n(C)c1C	2.9%	-10	-9	-13	0.0	0.1
CC[C@@]1(C(=O)OC)N[C@H](CN(C)C(=O)COC)[C@@H]2C(=O)N(Cc3ccccc3)C(=O)[C@@H]21	-2.0%	-4	7	-5	-2.4	1.0
O=C(NCc1ccccc1)C(c1cccs1)N(Cc1cccs1)C(=O)c1cnccn1 (configuration not stated)	1.0%	2	3	-1	1.7	0.2
O=C(O)c1ccc2c(c1)S(=O)(=O)c1cc(N3CCN(c4ncccn4)CC3)ccc1C2=O	-0.8%	0	2	-1	-3.1	2.7

Following part
SMILES	PINK1 modulator	TRPML1 inh	Six1-Eya2 inh	D2 PAM	D2 ag	TRPML1 ag
Cc1ccc2nc3c(cc(C#N)c(=O)n3-c3nnc(SCc4ccccc4Cl)s3)c(=O)n2c1	8.9%	-8	.	.	.	2.7
CCOc1nc(-c2ccc(OC)cc2)ccc1-c1noc(C)n1	-2.0%[38.3 µM]	1	3	-1	-1.8	3.0
COc1cc(Cl)c(C)cc1NC(=O)c1ccccc1NC(=O)CN1CCN(C(C)=O)CC1	0.8%	-5	-2	3	3.9	-1.3
CN(C)c1ccc(S(=O)(=O)c2ccc(Cl)cc2)cc1	4.4%	15	-1	0	0.2	3.1
CN(/C(=N\S(=O)(=O)c1ccccc1)C(F)(F)F)c1ccccc1	-1.3%	6	-2	0	-4.6	-0.2
CCC(CC)C(=O)N(C)c1c(C)nc2c(OCc3cccc(OC)c3)cccn12	1.5%	.	1	-4	3.0	-1.1
Cc1cccc(/C=N/n2c(-c3ccco3)n[nH]c2=S)c1	-3.9%	4	-1	-5	-4.1	1.9
CN(Cc1ccccc1)c1ccc(-c2nc(-c3ccccn3)no2)cc1[N+](=O)[O-]	-0.6%	79	.	.	.	1.8
COc1ccc(/C=C2\SC(=S)N(CC(=O)OCC(=O)Nc3cc(Cl)cc(Cl)c3)C2=O)cc1	-0.2%	14	-25	-10	-4.4	0.0
Cn1c(C(N)=O)cnc1Sc1ncc(C(F)(F)F)cc1Cl	-1.1%	4	0	10	-5.2	0.2
Cn1c(N2CCCC2)nc2c1c(=O)[nH]c(=O)n2C	1.6%	0	-5	0	-2.3	-0.4
Cc1ccc(NC(=O)CN(C)S(=O)(=O)c2cccc3cccnc23)cc1	0.7%	6	1	6	-3.1	-0.4

Source: PubChem BioAssay
